AmpC nodet inh – Promiscuous and Specific Inhibitors of AmpC Beta-Lactamase (assay without detergent). AID 585, 2007. P00811. 1.8% of 71,000 active. Potency, µM (highest dose often 28.7 µM), for inactives: at the highest dose activity change, negative = inhibition. AmpC nitrocefin hydrolysis, absorbance 480 nm, no detergent; potencies from a single point are estimates; active = falling curve, for most hits resting on a single point; inconclusive = weak or doubtful change; inactive = flat or rising curve; also: % of control where 0% means no effect; about half of the hits show no inhibition at the top dose; a quarter of the inactives give rising signals
Target sequence (P00811 whole entry, looked up): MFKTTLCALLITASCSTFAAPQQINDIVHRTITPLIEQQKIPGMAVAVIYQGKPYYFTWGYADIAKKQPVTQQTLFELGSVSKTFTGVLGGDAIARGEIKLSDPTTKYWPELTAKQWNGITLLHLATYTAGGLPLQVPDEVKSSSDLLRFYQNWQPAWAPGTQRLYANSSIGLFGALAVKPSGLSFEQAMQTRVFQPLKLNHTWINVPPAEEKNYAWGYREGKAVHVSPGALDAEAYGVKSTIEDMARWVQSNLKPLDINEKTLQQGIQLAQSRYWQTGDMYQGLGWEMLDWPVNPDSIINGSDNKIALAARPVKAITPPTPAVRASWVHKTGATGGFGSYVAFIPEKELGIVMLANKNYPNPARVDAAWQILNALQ
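AmpC, 20 mM phosphate pH 7.0; 15 min cpd preinc, RT; start with nitrocefin (800 uM stock); A480 kinetic read, 20 s intervals, 4 min. No-enzyme wells = negative control.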
An asterisk follows results filed as active; ? = inconclusive; [ ] = dose if it differs, or a comment. Potency is read from the fitted curve at half-maximal effect. Some of the compounds tested; count on the stated rates, not on these rows.

SMILES | AmpC nodet inh
c1ccc(CCc2nn3c(Cc4ccccc4)nnc3s2)cc1 | -12%
O=C(c1ccccc1C(F)(F)F)N1CCN(S(=O)(=O)c2ccccc2)CC1 | 14%
CCCOC(=O)CSc1nnc(-c2ccccc2Cl)o1 | 3%
COc1ccc(OC)c(C(=O)CSc2nnc(-c3ccc(OC)c(OC)c3)o2)c1 | 19%
C[N+]1(C)CCC[C@@H](OC(=O)C(O)(c2ccccc2)c2ccccc2)C1 | -1%[12.8 µM]
O=C(Nn1cnnc1)c1cc(-c2ccccn2)nc2ccccc12 | -4%
Oc1ccc(CCNCc2cc3c(cc2Br)OCO3)cc1 | -4%[5.75 µM]
CCN(c1ccccc1)S(=O)(=O)c1ccc2[nH]cc(C(=O)N3CCOCC3)c(=O)c2c1 | 8%
CCCOCC(C)OCC(C)O (stereo not drawn) | -8%
CCOC(=O)CSc1nnc(CNC(=O)c2cc(OCC)c(OCC)c(OCC)c2)n1C | 71%
CN1CCCC(OC(=O)COc2ccc(Br)cc2)C1 (stereo not drawn) | -5%
CCOC(=O)C1C(=O)NC(N2CCN(Cc3ccccc3)CC2)=NC1c1ccco1 (stereo not drawn) | 19%

Ordered by formula weight (smallest number first): part of the list above.
SMILES | AmpC nodet inh
CCCOCC(C)OCC(C)O (stereo not drawn) | -8%
CCCOC(=O)CSc1nnc(-c2ccccc2Cl)o1 | 3%
O=C(Nn1cnnc1)c1cc(-c2ccccn2)nc2ccccc12 | -4%
Oc1ccc(CCNCc2cc3c(cc2Br)OCO3)cc1 | -4%[5.75 µM]
CCOC(=O)C1C(=O)NC(N2CCN(Cc3ccccc3)CC2)=NC1c1ccco1 (stereo not drawn) | 19%
COc1ccc(OC)c(C(=O)CSc2nnc(-c3ccc(OC)c(OC)c3)o2)c1 | 19%
CCOC(=O)CSc1nnc(CNC(=O)c2cc(OCC)c(OCC)c(OCC)c2)n1C | 71%

(more compounds)
SMILES | AmpC nodet inh
O=C(Nc1nc2ccc(S(=O)(=O)N3CCCC3)cc2s1)c1cccs1 | -22%
O=C(CCC(=O)OCCCC(F)(F)C(F)(F)F)NC1CCCCC1 | 51%
Cc1occc1C(=O)NCCCCNC(=O)c1ccoc1C | 18%
Cn1c(Cn2nnc3ccccc32)nnc1SCC(=O)Nc1ccc2c(c1)OCO2 | 5%
O=C(O)CCS(=O)(=O)Cc1cccc(Cl)c1 | -1%
Cn1c(=O)cc(SCC(=O)N2CCCC2)c2ccccc21 | -7%
Cc1cc(NCCCCO)n2c(nc3ccccc32)c1C#N | -11%
O=S(=O)(c1cccc(-c2nnc(SC(F)F)n2-c2ccccc2)c1)N1CCCCC1 | 87%
Cc1nc(CC(=O)c2c(C)cc(O)cc2O)cs1 | 9%
CCCOc1ccc(C2C(=O)N(C3CCCCC3)CC(=O)N2CCCOCC)cc1OC (stereo not drawn) | 107%
CC1N=C2c3ccccc3N=C(SCc3cc(=O)n4cc(Cl)ccc4n3)N2C1=O (stereo not drawn) | 38%
CC(=O)c1cccc(NC(=O)C2CCN(S(C)(=O)=O)CC2)c1 | -1%
O=C(NCc1cccnc1)[C@@H]1[C@@H](C(=O)O)[C@H]2CC[C@@H]1O2 | 10%[5.75 µM]
CC(C)Oc1ccc(C2CNC(=O)C2)cc1 (stereo not drawn) | 12%
O=C(Nc1cccc(Cl)c1)N1CCN(c2ncccn2)CC1 | 10%
COc1cccc(C(=O)CSc2nnc(-c3cc(OC)c(OC)c(OC)c3)o2)c1 | 136%
COc1ccc2[nH]c3c(=O)n(Cc4ccco4)cnc3c2c1 | -8%
CCNc1ncc2nc(-c3ccc(Cl)cc3)c(=O)n(C)c2n1 | -12%
O=C(CSc1nnc(-c2cccs2)n1-c1ccccc1)N1CCN(C(=O)c2ccco2)CC1 | 58%
CCc1cc(=O)oc2cc(OCC(=O)O)c(Cl)cc12 | -6%
COc1cccc(CNC(=O)C2CCN(S(=O)(=O)c3cnc[nH]3)CC2)c1 | 3%
CC1=CC(C)(C)N=C(Nc2ccc(C)cc2)S1 | ?
COc1ccc(N2CCN(C(=O)CSc3nnc(-c4ccc5[nH]c(C)c(C)c5c4)o3)CC2)cc1 | 59%
c1ccc(CN2CCC3(CC2)Nc2ccccc2CO3)cc1 | -9%
COC(=O)c1ccc(CNC(=O)CNc2cc(C(F)(F)F)ccc2N2CCOCC2)cc1 | 47%
CCOC(=O)C1C(=O)Nc2nc3ccccc3n2C1C(C)C (stereo not drawn) | -7%
O=C(COC(=O)Cn1[nH]c(=O)c2ccccc2c1=O)Nc1ccc2c(c1)OCO2 | -12%
Nc1nc(-c2ccccc2)cc(C(F)(F)F)n1 | -8%
Cc1nnc2n(Cc3ccccc3)c(=O)c3c4c(sc3n12)COC(C)(C)C4 | 85%
O=C(CSc1nnc2scc(-c3ccccc3)n12)Nc1ccc2c(c1)OCCO2 | 6%
Clc1ccccc1OCCn1cnc2ccccc21 | 19%
CCOC(=O)CSc1nc2cc3c(cc2cc1C#N)OCO3 | -23%
COC(=O)N1CCC2(CCCN(C(=O)Nc3ccc(OC)cc3)C2)CC1 | 4%
CCOC(=O)c1ccc(NC(=O)CSc2nnc(COc3ccccc3)n2C)cc1 | 27%
CN(c1nc2c(c(=O)n(C)c(=O)n2C)n1CC(=O)c1ccccc1)C1CCCCC1 | 1%
C[C@@H]1O[C@H](O[C@@H]2[C@H](C)O[C@H](O[C@@H]3[C@H](C)O[C@H](O[C@H]4CC[C@]5(C)[C@@H](CC[C@@H]6[C@H]5C[C@@H](O)[C@]5(C)[C@@H](C7=CC(=O)OC7)CC[C@]65O)C4)C[C@@H]3O)C[C@@H]2O)C[C@H](O)[C@@H]1O | 71%[12.8 µM]
CCCCN1C(=O)C2C(c3ccc(OC)cc3O)NC(CC(C)C)(C(=O)O)C2C1=O (stereo not drawn) | 8%
CC(C)(C)n1nnnc1C(c1cccnc1)N1CCN(C2CCCCC2)CC1 (stereo not drawn) | 4%
CN(C(=O)c1ccccn1)c1nnc(-c2cccnc2)s1 | -1%
Cc1cc(-c2nnco2)c(C)n1-c1ccc(F)cc1 | 16%
O=C(CCn1nc(-c2ccccc2)ccc1=O)N1CCN(c2ccccn2)CC1 | 59%
CCOC(=O)c1ccccc1NC(=O)COC(=O)c1ccc(C)c(S(=O)(=O)N2CCOCC2)c1 | 73%
Cc1ccc2[nH]c(=O)c(CN(Cc3ccco3)C(=O)c3cccs3)cc2c1 | 1%
O=C(CCSc1ccccc1)NCCSc1ccccn1 | 9%
CCc1c(C)c2cc(Cl)c(O)c(CN(C)C)c2oc1=O | -4%
CCOc1ncccc1C(=O)NCC1COc2ccccc2O1 (stereo not drawn) | 30%
CCOc1ccccc1NC(=O)CCS(=O)(=O)c1cccc2nonc12 | -7%
CC(C)CCNC(=O)c1ccc2c(c1)N(Cc1ccccc1)C(=O)CS2=O (stereo not drawn) | 21%
Cc1ccc([N+](=O)[O-])c(N)c1 | -1%
COC(=O)c1ccccc1NC(=O)N1CSC[C@H]1C(=O)OC | 10%
CCOc1ccccc1O[C@@H](c1ccccc1)[C@@H]1CNCCO1 | 35%
CN(C)c1ccc(-c2nnn(CC(=O)N3c4ccccc4CCc4ccccc43)n2)cc1 | 19%
COc1ccc(-c2csc(NCc3ccco3)n2)cc1C | -24%
NCC#Cc1ccccc1 | 8%
Cc1ccccc1-c1cncnc1N1CCNCC1 | 22%
CCOC(=O)c1ccccc1NC(=O)CSc1nnc(COc2ccccc2C)n1C | 90%
COc1ccc(N2CCN(C(c3cccs3)C(C)NS(=O)(=O)c3ccccc3)CC2)cc1 (stereo not drawn) | 19%
Cc1ccc(C)c(OCC(=O)Nc2ccc3c(c2)OCO3)c1 | -4%
O=C(COc1ccc(-n2cnnn2)cc1)NC(=O)NCc1ccccc1 | -3%
COCCOC(=O)C1=C(C)N=C2SCCC(=O)N2C1c1cc(Br)ccc1OC (stereo not drawn) | 99%

More structures
SMILES | AmpC nodet inh
CC[C@H](CC[C@H](C)[C@@H]1CC[C@@H]2[C@H]3CC=C4C[C@@H](O)CC[C@]4(C)[C@H]3CC[C@]21C)C(C)C | 8%[12.8 µM]
O=C(CSc1nnc2ccccn12)NC(=O)NC1CCCC1 | -6%
CCn1cc(C(=O)NC2CCCCCC2)c2cc(OC)c(OC)cc2c1=O | 111%
CC1CCCN(c2nc3ccccc3nc2C(C#N)C(=O)OC2CCCCC2)C1 (stereo not drawn) | -14%
CCCNC(=O)c1c(N)n(Cc2ccc3c(c2)OCO3)c2nc3ccccc3nc12 | 42%
Oc1ccccc1C1Nc2cccc3cccc(c23)N1 | -22%
Cc1nc(N)nc(C)c1Cc1ccccc1 | 17%
Cc1ccc(N(CC(=O)N2CCN(C3CCCCC3)CC2)S(=O)(=O)c2cccnc2)cc1 | 78%
CCN(CC)C(=O)C1CCCN(Cc2ccccc2F)C1 (stereo not drawn) | -17%
Cc1ccccc1N1C(=O)CC(=O)NC1=O | -6%
CCc1cc(=O)oc2c(C)c(O)c(CN(C)C)cc12 | -7%
N#Cc1nc(-c2ccco2)oc1NCCCN1CCOCC1 | -2%

In the list so far, these have a COOH group:
SMILES | AmpC nodet inh
O=C(O)CCS(=O)(=O)Cc1cccc(Cl)c1 | -1%
O=C(NCc1cccnc1)[C@@H]1[C@@H](C(=O)O)[C@H]2CC[C@@H]1O2 | 10%[5.75 µM]
CCc1cc(=O)oc2cc(OCC(=O)O)c(Cl)cc12 | -6%
CCCCN1C(=O)C2C(c3ccc(OC)cc3O)NC(CC(C)C)(C(=O)O)C2C1=O (stereo not drawn) | 8%

Continuation.
SMILES | AmpC nodet inh
O=C1OCC(c2ccccc2)=C1c1ccc(S(=O)(=O)N2CCOCC2)s1 | 1%
CCN(CC)S(=O)(=O)c1cccc(-c2nnc(SCCOc3ccccc3)o2)c1 | 17%
CC1(C)CC(=O)C2=C(C1)OC(N)=C(C#N)C2c1cccc(OC(=O)c2ccco2)c1 (stereo not drawn) | 4%
CN(Cc1ccccc1)C(=O)CN(C1CCCCC1)S(C)(=O)=O | 108%
CSc1ccccc1NS(=O)(=O)c1ccccc1 | -3%
COc1ccc(-c2cc(C(=O)NCCN3CCOCC3)c3ccccc3n2)cc1 | 112%
Cc1nn(C)c(C)c1S(=O)(=O)N1CCCC(C(=O)NCCc2ccc(Cl)cc2)C1 (stereo not drawn) | 48%
Cc1nc2sc(C(c3cccs3)N3CCOCC3)c(O)n2n1 (stereo not drawn) | -11%
CC1CC2(C)Oc3ccccc3C3OCC1(CO)C(C)C32 (stereo not drawn) | 13%
COc1ccc(C2(NC(C)=O)CCN(C(=O)c3ccco3)CC2)cc1 | 4%
CC(=O)Nc1ccc(NS(=O)(=O)Cc2ccccc2)cc1 | -5%
CCOC(=O)C1=C(C)OC(N)=C(C(=O)OCC)C12C(=O)Nc1ccc(Br)cc12 (stereo not drawn) | 69%
COc1ccc(C)cc1NC(=O)COCC(=O)O | -5%
Cc1ccccc1-n1c(=O)c2ccccc2n2c(=O)[nH]nc12 | -4%
Cc1ccc(/C(C#N)=C\c2cn(C)c3ccccc23)cc1 | -10%
O=c1nc2s/c(=C\c3ccco3)c(=O)n2nc1Cc1ccccc1 | -22%
COc1ccc(CNC(=O)c2nnn(Cc3ccc(OC)cc3)c2N)cc1 | 2.5µM*[single pt active]
CCOC(=O)Nc1ccc(C(=O)NCC2CCCO2)cc1 (stereo not drawn) | 3%
CCN(CC)S(=O)(=O)c1cccc(-c2nnc(SCCCC(=O)c3ccccc3)o2)c1 | 9%
COc1ccccc1-n1c(SCC(=O)Nc2ccc3c(c2)OCO3)nc2c(c1=O)SCC2 | 22%
CCOC(=O)C1C(=O)OC(C)(C)C1C(C)C(=O)c1ccc(OC)cc1 (stereo not drawn) | 17%
Oc1ccc([C@H](O)[C@@H]2CCCCN2)cc1O | -2%[5.75 µM]
O=c1cc(N2CCC3(CC2)OCCO3)[nH]c(=O)n1-c1ccc(Cl)cc1 | 7%
O=C(Nc1ncnc2c1ncn2C1OC(COC(=O)c2ccccc2)C(F)C1O)c1ccccc1 (stereo not drawn) | 36%
Cc1cc(NC(=O)COc2ccc3oc4ccccc4c3c2)no1 | -19%
COC(=O)CNC(=O)CNC(=O)Nc1ccccc1 | -3%
COC(=O)c1ccccc1NC(=O)CN(C1CCCCC1)S(C)(=O)=O | 26%
CCOCCCn1c(SCC(=O)NC(C)C)nc2ccccc2c1=O | 11%
c1ccc2c(c1)oc1c(N3CCN(Cc4ccc5c(c4)OCO5)CC3)ncnc12 | 114%
CNC(=O)[C@@]1(C)C=C[C@@H](Cc2ccccc2)N1C(=O)OC | 16%
Cc1ccc2nc(CSc3nnc(-c4ccco4)o3)cc(=O)n2c1 | 3%
CCOC(=O)c1c(C)[nH]c(C)c1C(=O)COc1ccc(NC(=O)c2ccco2)cc1 | 7%
COc1ccc(N2CCN(CCCNC(=O)CCCn3c(=O)[nH]c4ccsc4c3=O)CC2)cc1 | 22%
Cc1cc(C(=O)CN2C(=O)NC(Cc3c[nH]c4ccccc34)C2=O)c(C)n1C (stereo not drawn) | 46%
CC1CCN(C(=O)CSc2nnc(-c3ccco3)o2)CC1 | 8%
N#CN=C(N)c1ccccc1 | -13%
CCOc1ccc(N2C(=O)CCC2=O)cc1 | -2%
COc1ccc(-n2c(C)cc(C(=O)COc3ccc(-n4cnnn4)cc3)c2C)cc1 | 18%
O=C1c2ccccc2C(=O)N1CCCCSc1nnc(-c2ccc(OC(F)F)cc2)o1 | 35%
COc1cc2[nH]c3c(N4CCC(C(N)=O)CC4)ncnc3c2cc1OC | -14%
N#CSCSC#N | -10%
COc1cccc(-c2nc(NCc3ccccc3)c3ccccc3n2)c1 | -5%

Structural class: those above with a CF3 group
SMILES | AmpC nodet inh
O=C(c1ccccc1C(F)(F)F)N1CCN(S(=O)(=O)c2ccccc2)CC1 | 14%
O=C(CCC(=O)OCCCC(F)(F)C(F)(F)F)NC1CCCCC1 | 51%
COC(=O)c1ccc(CNC(=O)CNc2cc(C(F)(F)F)ccc2N2CCOCC2)cc1 | 47%
Nc1nc(-c2ccccc2)cc(C(F)(F)F)n1 | -8%

Screens deposited in PubChem by National Center for Advancing Translational Sciences (NCATS).
